HPGD block: inhibitors of human 15-hydroxyprostaglandin dehydrogenase (HPGD); AID 894; 150,000 compounds, 4.3% hits; purified HPGD, NADH fluorescence kinetic, PGE2 substrate; Potency, µM, without a hit: at the highest dose activity change, negative = inhibition, hits mostly inhibitors; P15428; active = well fitted inhibition curve with a large enough effect (not every such curve was filed as active); inconclusive = small, poorly fitted or top-dose-only effect, or another doubt; inactive = no such curve, though single readings can be large or run the other way;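 further: top concentration of the series not given in the record; plate controls included wells without enzyme; inactives centre near -10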
Target sequence (P15428 whole entry, looked up): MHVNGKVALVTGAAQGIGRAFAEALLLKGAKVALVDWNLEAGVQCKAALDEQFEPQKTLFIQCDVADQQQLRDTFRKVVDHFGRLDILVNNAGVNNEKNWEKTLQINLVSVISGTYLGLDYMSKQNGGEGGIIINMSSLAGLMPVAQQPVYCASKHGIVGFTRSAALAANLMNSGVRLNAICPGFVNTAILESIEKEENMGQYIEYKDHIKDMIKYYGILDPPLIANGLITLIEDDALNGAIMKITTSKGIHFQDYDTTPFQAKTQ
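20 nM HPGD preincubated 15 min at room temperature with compound in 50 mM Tris-HCl pH 8, 0.01% Tween 20. Started with 1 mM NAD+ and 30 uM prostaglandin E2; NADH fluorescence (360/450 nm) read 5 times over 30-s intervals, last minus first.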
* marks the source's active call; other numbers are inactive results; u = inconclusive; & = joins results of further samples. On the % scale 0 is the no-effect control and ±100 the full control effect; potency means the concentration at half of the fitted maximal effect. Some of the compounds tested, so the mix of outcomes need not match the whole.

SMILES	HPGD block
CCOC(=O)Cn1c2[n+](c3ccccc31)CC(O)CS2 (stereo not drawn)	3%
O=C(C/C=N\OCc1c(Cl)cccc1Cl)Oc1ccc(Cl)cc1Cl	-15%
Cc1ccc(NC(=O)Cc2noc3ccccc23)c(C)c1	-9%
CCOc1ccccc1CNC(=O)C1CCC(=O)N1C(C)C (stereo not drawn)	-3%
C[C@@H](C(=O)Nc1ccc2ccccc2c1)[C@@H]1C[C@@]1(C)[C@@H](NC(=O)c1cccnc1)c1ccccc1	-17%&-8%
O=C(Nc1ccccc1)N1N=C(c2cccs2)CC1c1cccs1 (stereo not drawn)	u
CC(C)=CCc1c(C)nc2ccccc2c1C(=O)O	-3%
O=C1CC(c2ccccc2)CC(O)=C1C=Nc1ccccc1Cl (stereo not drawn)	-12%
Cc1cc(C(=O)NCc2cccs2)c(C)o1	16µM*
COCCCn1c(SCC(=O)NC2CCCCC2)nnc1-c1ccncc1	-8%
COc1ccc(/C(C)=N\NC(=O)CSc2nnc(C)s2)cc1	-8%
O=C(Cc1ccc(-n2c(=O)c3sccc3n(Cc3ccc(F)cc3)c2=O)cc1)NCc1ccco1	-8%
COc1ccc(/C=C/C(=O)c2ccc3c(c2)OCO3)c(OC)c1	-26%
CCOC(=O)C(C(C)=O)c1nc(C)nc2c1nnn2Cc1ccccc1Cl (stereo not drawn)	u
Cc1cc(C)c(C(N)=O)c(Nc2cccc(Cl)c2C)n1	-8%
CC1CCN(C(c2ccc(N(C)C)cc2)c2nnnn2Cc2ccccc2)CC1 (stereo not drawn)	-12%
Cc1cc(-c2ccccc2)nc(=O)[nH]1	-12%
Cc1ccc(-c2csc(NC(=O)CSC3=NCCS3)n2)cc1	-17%
O=C(/C=C/Nc1ccccc1)c1cnc(-c2ccccc2)s1	-9%
CCOC(=S)SCc1cn2ccc(C)cc2n1	-8%
COCCn1nnnc1CN1CCC(Cc2ccccc2)CC1	-9%
COc1ccc(NC(=O)CN(C)S(=O)(=O)c2cccs2)cc1	-5%
CCOc1ccc(-c2cc(C(=O)Nc3ccc4c(c3)OCCO4)c3ccccc3n2)cc1	-22%
COc1ccc(NC(=O)c2ccccn2)cc1OC	-3%
CCCNC(=O)c1cc2c(C(F)(F)F)nn(C)c2s1	-17%
Next compounds follow.
SMILES	HPGD block
CCN(CC)S(=O)(=O)c1cccc(C(=O)Oc2cccnc2)c1	-6%
CCOC(=O)N1CCC(Nc2c(N3CCN(c4cc(Cl)ccc4C)CC3)c(=O)c2=O)CC1	-9%
CCc1cccc(NC2c3ccccc3C(=O)N2c2cccnc2)c1 (stereo not drawn)	-12%
Cc1ccc(S(=O)(=O)N2CCN(c3ccc4nnc(-c5ccccc5)n4n3)CC2)cc1	u
CCCCCCCOC(=O)C[N+](C)(C)CCOC1CC2CCC1(C)C2(C)C (stereo not drawn)	-9%
CN(C)CC(C)(C)CNS(=O)(=O)c1cccc(Cl)c1Cl	-3%
CCN(CC)S(=O)(=O)c1ccc(Cl)c(C(=O)NC)c1	-6%
CC(C)N(C(=O)CSc1nc2ccccc2n1Cc1ccc(F)cc1)C(C)C	-12%
O=C(Nc1ccc(S(=O)(=O)NCc2ccccc2)cc1)c1ccc(Br)o1	-11%
CCC(=O)Nc1c(C(=O)N2CCCCCC2)cnn1-c1ccc(C)c(C)c1	u
N#Cc1cc(-c2ccccc2)c[nH]c1=O	u
CSC(=N)N	-16%&-7%
O=C1C2CC=CCC2C(=O)N1c1ccc(NCCc2ccc(O)cc2)c([N+](=O)[O-])c1 (stereo not drawn)	-27%
Cc1ccn2cc(C(=O)Nc3ccc4c(c3)OCCO4)nc2c1	-3%
Cc1cc(C)nc(N/N=C/C2=C(N3CCOCC3)C(=C/c3ccccc3)/CC2)n1	18µM*
CCCn1c(CNc2ccccc2O)nc2ccccc21	-3%
O=C(Nc1c2c(nc3ccccc13)CCCC2)c1ccccc1Br	-9%
CCN1/C(=C2\C(=O)N(c3ccccc3)N=C2C)C=Cc2cc(C)ccc21	-3%
c1ccc(-c2ccnc3nc(N4CCN(c5ccccc5)CC4)nn23)cc1	-23%
CCOc1nc(Nc2ccc(OC)cc2)nc(OCC)n1	-12%
O=C(Nc1ccc2c(c1)OCCO2)c1cc2sccc2n1Cc1ccccc1	-21%
NC(=O)NC(c1ccccc1)c1ccccc1	-8%
CCN(CC)S(=O)(=O)c1cccc(C(=O)Nc2cc(C)cc(C)c2)c1	-10%
O=C1C2[C@@H](c3ccccc3)N[C@@H](c3ccccc3)C1[C@H](c1ccccc1)N[C@H]2c1ccccc1	-17%
Cc1ccccc1C(=O)c1cccn1CC(=O)NCCN1CCN(c2cccc(C)c2C)CC1	-4%
Carrying on:
SMILES	HPGD block
O=C(NCc1ccccc1Cl)c1cnn2cccnc12	-22%
Cc1cccc(Nc2cc(=O)[nH]c(=O)[nH]2)c1C	-2%
Cc1ccccc1C(=O)NNC1=NCCC1	5%
CC(C)(C)c1nc2scc(-c3cccs3)c2c(=O)o1	u
Nc1c(NCCC2=CCCCC2)c(=O)[nH]c(=O)n1Cc1ccccc1	u
COc1cc(/C=N/N2C(=O)c3ccccc3NC2(C)c2cccc([N+](=O)[O-])c2)cc(Br)c1O (stereo not drawn)	-13%
CSc1ccc(S(=O)(=O)NCCSC(C)(C)C)cc1	-12%
O=C(NC1(C(F)(F)F)NC(=O)N(CCc2ccccc2)C1=O)C1CC1 (stereo not drawn)	-1%
O=C(CCC1COc2ccccc2O1)NCC1COc2ccccc2O1 (stereo not drawn)	-19%
Cc1ccc(C(NC(=O)N2CCOCC2)C(Cl)Cl)cc1F (stereo not drawn)	4%
O=C(NC(=S)Nc1ccc2[nH]ncc2c1)c1ccccc1	u
CCOC(=O)N1CCN(C(=O)CSc2nnc(-c3ccc(C(C)(C)C)cc3)o2)CC1	-7%
Cc1c(Cl)cccc1N1C(=O)CC(NNC(=O)c2cccnc2)C1=O (stereo not drawn)	-3%
O=C(NC(=S)Nc1cccc(NC(=O)c2ccccc2)c1)c1cccc([N+](=O)[O-])c1	-5%
COc1ccc(N2CCN(c3ncnc4c3cnn4-c3ccc(C)cc3C)CC2)cc1	-8%
COc1ccc(-c2noc(CCC(=O)N3CCN(c4cc(C)ccc4C)CC3)n2)cc1	-4%
O=C(CN1C(=O)C2C3C=CC(C3)C2C1=O)NCCc1ccccc1 (stereo not drawn)	-15%
CCCC/C=C/C(NC(=O)CCc1ccccc1)c1ccccc1 (stereo not drawn)	-12%&-18%
CCC(C)(C)NC(=O)CC(c1ccc(OC)cc1)n1cccc1 (stereo not drawn)	-14%
Cc1ccc(S(=O)(=O)Nc2ccccc2C(=O)Nc2ccc(S(=O)(=O)Nc3nccc(C)n3)cc2)cc1	u
Cc1ccc(-n2c(C)cc3c2CCCC3=O)cc1	-11%
Cc1cc(C(F)(F)F)nc(SCc2ccc(C(=O)O)o2)n1	-14%
CC(C)Cc1nnc(NC(=O)CCC(=O)N2CCOCC2)s1	-1%
CC(C)Cn1c(CNC(=O)c2ccccc2)nc2ccccc21	-13%
O=C(c1ccc2snnc2c1)N1CCCC1	-19%
(continued)
SMILES	HPGD block
COc1ccccc1NC(=O)C1=C(C)Nc2nc(-c3ccccc3)nn2C1c1ccccn1 (stereo not drawn)	-14%
CCSc1nnc([C@H](C)NC(=O)OC(C)(C)C)o1	-5%
CCC1NC(=S)N(C2CCCCC2)C1=O (stereo not drawn)	-4%
Cc1cnc(NC(=O)COc2ccccc2Cl)s1	-11%
O=C(NC1(C(F)(F)F)C(=O)Nc2c1c(=O)[nH]c(=O)n2Cc1ccccc1)c1ccc(Cl)cc1 (stereo not drawn)	-3%
c1ccc(Cn2c(SCc3nc4ccccc4s3)nnc2-c2ccco2)cc1	u
O=C(O)C1CC=CCC1C(=O)Nc1ccc(F)c(F)c1 (stereo not drawn)	-5%
CSc1nc(SC)c2c3c(oc2n1)COC(C)(C)C3	-13%
O=C(Oc1ccccc1)N1CCC[C@@]2(CCN(c3ncccn3)C2)C1	-11%
O=C(NCC1CCCO1)c1cc2c(s1)CS(=O)(=O)C2 (stereo not drawn)	u
Cc1ccc(/C=C/C(=O)NCCCN2CCN(CCCNC(=O)/C=C/c3ccc(C)o3)CC2)o1	-21%
CCc1ccccc1NC(=O)CSc1nc2n[nH]c(C)c2c(=N)n1-c1ccc(OC)cc1	-11%
CC1CCCCC1NC(=O)c1cncc(Br)c1 (stereo not drawn)	-2%
Cc1cccc(NC(=O)c2ccc(OCC(=O)NCc3ccccc3)cc2)c1C	-12%
Cn1c(Cn2nnc3ccccc32)nnc1SCC(=O)N1c2ccccc2Sc2ccccc21	-10%
Cc1nc(-c2cccnc2)sc1C(=O)Nc1ccc(C(F)(F)F)cc1	-6%
CCOC(=O)c1nnn(-c2nonc2N)c1COc1cc(C)c(Cl)c(C)c1	-23%
CC(=O)NC1(C(F)(F)F)N=C2SCCN2C1=O (stereo not drawn)	0%
COC(=O)CCCC1=CC2=CC(=O)C(C)(OC(=O)c3cccs3)C(=O)C2=CN1c1cccc(C#N)c1 (stereo not drawn)	-1%
COc1ccc(S(=O)(=O)N2CCN(CC(=O)Nc3cc(C(F)(F)F)ccc3Cl)CC2)cc1	-7%
CC(C)C(c1nnnn1C1CCCCC1)N1CCc2ccccc2C1 (stereo not drawn)	-12%
COc1cccc(C(c2sc3ncnn3c2O)N2CCN(C(=O)c3ccco3)CC2)c1 (stereo not drawn)	-6%
Cc1ccc(-c2csc3nc(C)n(N)c(=O)c23)o1	-6%
COC(=O)/C(=C/c1ccc(OC)cc1)NC(=O)c1ccco1	-16%
O=C(Nc1cc(Sc2nc3ccccc3s2)cc([N+](=O)[O-])c1)c1ccccc1F	-16%
Additional entries.
SMILES	HPGD block
O=C(c1ccc([N+](=O)[O-])cc1)N1CCOC12CCN(c1ncc(C(F)(F)F)cc1Cl)CC2	-11%
COc1ccc(Cl)cc1NC(=S)N1CCN(C(=O)c2ccco2)CC1	-8%
CCCc1c(O)nc(SCCN(CC)CC)[nH]c1=O	-3%
COc1ccc(C)cc1S(=O)(=O)Nc1ccc(F)cc1	-7%
COc1cc(C(=S)N2CCOCC2)cc(OC)c1OC(=O)Cc1ccc(F)cc1	16µM*
Cc1cccc(NC(=O)COC(=O)Cc2c[nH]c3ccccc23)c1C	6%
O=C(CN1CCOCC1)Nc1nc2ccc(F)cc2s1	-9%
O=c1c2c(-c3ccc([N+](=O)[O-])cc3)csc2nc2n1CCC2	22µM*
Cc1ccc(N=Cc2ccc[nH]2)c(O)c1	-5%
COc1ccc(N2CCCn3c2nc2c3c(=O)n(Cc3ccccc3F)c(=O)n2C)cc1	-6%
COc1ccc(-c2noc(CN3CCC(Cc4ccccc4)CC3)n2)cc1	-4%
CCOC(=O)N1CCN(c2c(Nc3ccc4c(c3)OCCO4)c(=O)c2=O)CC1	-19%
O=C(c1ccc(CS(=O)(=O)c2ccc(Br)cc2)o1)N1CCN(c2ncccn2)CC1	-6%
CCC1Oc2ccc(C)cc2N(CC(=O)N(Cc2ccc3c(c2)OCO3)CC2CCCO2)C1=O (stereo not drawn)	-4%
Cc1ccc(C)c(C(=O)COc2ccccc2[N+](=O)[O-])c1	-22%
COC(=O)c1ccc2nc(Nc3nc4ccc(F)cc4s3)sc2c1	u
Cc1ccc(N2CCN(C3=NC(=O)/C(=C\c4cn[nH]c4-c4ccccc4)S3)CC2)cc1	-15%
CC(C)C(c1nnnn1C1CCCC1)N1CCCc2ccccc21 (stereo not drawn)	-17%
CCn1c(CNC(=O)Cc2ccc(OC)cc2)nnc1SCC(=O)c1ccc(Br)cc1	-11%
O=C(Nc1nc(N2C(=O)c3ccccc3C2=O)n(-c2ccccc2)n1)c1ccc(F)cc1	-7%
Cc1ccc(C(=O)NC(C)CCc2ccccc2)cc1[N+](=O)[O-] (stereo not drawn)	-16%
CC(C)(C)c1cc(Br)ccc1OCC(=O)Nc1ncn[nH]1	-12%
CC(=O)N1CCC(N(C(=O)Nc2ccc(F)cc2)C2CCCC2)CC1	-1%

Pulled by structure from above, three records:
SMILES	HPGD block
O=c1c2c(-c3ccc([N+](=O)[O-])cc3)csc2nc2n1CCC2	22µM*
CC(C)C(c1nnnn1C1CCCC1)N1CCCc2ccccc21 (stereo not drawn)	-17%
Cc1cccc(NC(=O)COC(=O)Cc2c[nH]c3ccccc23)c1C	6%

Grouped by structure: those above with an aryl thioether with sulfur outside any ring.
SMILES	HPGD block
COCCCn1c(SCC(=O)NC2CCCCC2)nnc1-c1ccncc1	-8%
COc1ccc(/C(C)=N\NC(=O)CSc2nnc(C)s2)cc1	-8%
CC(C)N(C(=O)CSc1nc2ccccc2n1Cc1ccc(F)cc1)C(C)C	-12%
CSc1ccc(S(=O)(=O)NCCSC(C)(C)C)cc1	-12%
CCOC(=O)N1CCN(C(=O)CSc2nnc(-c3ccc(C(C)(C)C)cc3)o2)CC1	-7%
Cc1cc(C(F)(F)F)nc(SCc2ccc(C(=O)O)o2)n1	-14%
CCSc1nnc([C@H](C)NC(=O)OC(C)(C)C)o1	-5%
c1ccc(Cn2c(SCc3nc4ccccc4s3)nnc2-c2ccco2)cc1	u
CSc1nc(SC)c2c3c(oc2n1)COC(C)(C)C3	-13%
CCc1ccccc1NC(=O)CSc1nc2n[nH]c(C)c2c(=N)n1-c1ccc(OC)cc1	-11%
Cn1c(Cn2nnc3ccccc32)nnc1SCC(=O)N1c2ccccc2Sc2ccccc21	-10%
O=C(Nc1cc(Sc2nc3ccccc3s2)cc([N+](=O)[O-])c1)c1ccccc1F	-16%
CCCc1c(O)nc(SCCN(CC)CC)[nH]c1=O	-3%
CCn1c(CNC(=O)Cc2ccc(OC)cc2)nnc1SCC(=O)c1ccc(Br)cc1	-11%
